Menin MLL FP FL – menin-MLL binding inhibition, fluorescein peptide. Fluorescence polarization, fluorescein-MLL peptide displacement from menin. FP activity change, % at 61.4 µM. 290,000 tested, under 10 active. AID 1766; inconclusive = falling polarisation curve, or a change in total fluorescence; inactive = total fluorescence flat and polarisation flat or rising; no compound was filed as active; the % refers to the polarisation; negative = inhibition;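 also: % of control where 0% means no effect; inhibitors lower the polarisation; unlabelled MLL peptide was the positive control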
Sfp PPTase inh – Sfp phosphopantetheinyl transferase inhibition; Q9F4F7; Biochemical Sfp PPTase activity, qHTS; Potency, µM, inactives show max response, negative = inhibition, usual class: inhibitors; hit rate 3.5% among 310,000; AID 1490; active = well fitted inhibition curve with a large enough effect; inconclusive = small, poorly fitted or top-dose-only effect, or another doubt; inactive = no such curve, though single readings can be large or run the other way;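 also: the enzyme is Sfp with the accession as filed and its product quenches rhodamine fluorescence; potency is read from the fitted curve at half-maximal effect; 0% = enzyme reaction without inhibitor and -100% = no enzyme wells; top concentration of the series not given in the record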
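Fluorescence-quenching assay with 15 nM Sfp, 5 uM rhodamine-CoA and 12.5 uM BHQ-2-labelled ybbR peptide in pH 7.6 Hepes/MgCl2 buffer. Enzyme was pre-incubated with compound for 15 min at room temperature. Rate was taken from the 30-min fluorescence change (525/598 nm).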
gsp antag – antagonizes gsp, the McCune-Albright syndrome mutation | hit rate 0.4% among 340,000 | gsp-mutant cells, cAMP HTRF, 30 min; control for the full effect not named in the record | AID 624288 | Potency, µM (highest dose often 76.9 µM), for the others: at the highest dose activity change, negative = inhibition, hits mostly inhibitors; active = falling curve of any shape with a large fitted effect; inconclusive = falling curve, mostly with a smaller effect; inactive = flat or rising curve; cell line not stated here;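 also: intracellular cAMP measured with PDE inhibitor Ro 20-1724 present during compound exposure; potency is read from the fitted curve at half-maximal effect; % is scaled to controls: 0 for no effect and ±100 for the full control effect; nearly all actives have a fitted effect of over 65% in size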
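HTRF cAMP measurement after 30 min RT detection following 30 min, 37C compound treatment alongside […] (added as 300 uM solution) in G418-selected cells seeded at 2000/well and grown 16–24 h.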
ClpP mod – qHTS Assay for Activators of ClpP; ATP-dependent Clp protease proteolytic subunit (Bacillus subtilis (strain 168)), P80244; purified B. subtilis ClpP, FRET peptide cleavage, 20 min; Potency, µM (doses to about 57.5 µM), without a hit: top-dose activity change, negative = active; hit rate 1.9% among 340,000; active = well fitted falling curve with a large enough effect; inconclusive = small, poorly fitted or top-dose-only effect; inactive = no such curve, though single readings can be large or run the other way; also: potency is read from the fitted curve at half-maximal effect; the source files actives as falling curves though it sought activators and does not explain the sign; nearly all actives have a fitted effect of over 65% in size; many hits overshoot -100%
Target sequence (P80244 whole entry, looked up): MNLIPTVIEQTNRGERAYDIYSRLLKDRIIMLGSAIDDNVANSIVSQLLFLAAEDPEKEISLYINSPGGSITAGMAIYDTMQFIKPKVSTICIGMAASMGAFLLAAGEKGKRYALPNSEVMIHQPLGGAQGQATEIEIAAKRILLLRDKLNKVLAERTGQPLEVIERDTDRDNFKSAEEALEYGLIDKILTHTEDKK
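FRET quenching reversal measured ClpP activation: 10 microg/mL B. subtilis ClpP at pH 8 with the FRET-FV decapeptide, read at 430 nm after 320 nm excitation. The 20-min minus 0-min signal was scaled between DMSO/no-enzyme wells and ADEP (5.8 microM final).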
TRPV1 potentiator – human TRPV1 potentiation; TRPV1-expressing cells, Fluo-8 calcium influx, capsaicin EC20 potentiation; host cell line not named in the record; control for the full effect not named in the record; Q8NER1; hit rate 0.02% among 320,000; AID 540277; potentiation, % at 8.33 µM; active means potentiation above 80%; inconclusive means 30% to 80%; inactive means below 30%; also: 0% is about no effect
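Fluo-8 calcium influx in TRPV1-expressing cells, kinetic read (ex 480/em 520 nm). Compound added and read 3 min for agonist activity, followed by capsaicin at EC20 final and 2 min further read for enhancement.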
gsp agonist – activates gsp, the McCune-Albright syndrome mutation; Potency, µM (titrated, usually from 76.9 µM), for the others: at the highest dose activation (cAMP increase), most hits filed as activators; hit rate 0.13% among 340,000; gsp mutant cells, cAMP HTRF, 30 min; control for the full effect not named in the record; active = well fitted activation curve with a large enough effect; inconclusive = small, poorly fitted or top-dose-only effect, or another doubt; inactive = no such curve, though single readings can be large or run the other way; cell line not stated here;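 also: phosphodiesterase inhibitor Ro 20-1724 added with compounds to block cAMP breakdown; potency is read from the fitted curve at half-maximal effect; nearly all actives have a fitted effect of over 60% in size; about a fifth of the inactives were tested at one dose only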
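Cells stably selected in G418 were plated at 2000/well, grown 16-24 hr, then given compounds in DMSO with the PDE inhibitor […] (300 uM solution added) for 30 min at 37C; cAMP was read by HTRF.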
D2 PAM – human D2 receptor positive allosteric modulation. P14416. DiscoveRx D2 beta-arrestin cells, luminescence, 90 min; 100% = 57 uM dopamine signal. potentiation, % (no concentration beside the values). hit rate 0.23% among 360,000; active = potentiation of 50% or more; inconclusive = 30% to 50%; inactive = 30% or less;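 also: compound concentration not given in the record; tested on top of an EC20 dose of dopamine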
Target sequence (P14416 whole entry, looked up): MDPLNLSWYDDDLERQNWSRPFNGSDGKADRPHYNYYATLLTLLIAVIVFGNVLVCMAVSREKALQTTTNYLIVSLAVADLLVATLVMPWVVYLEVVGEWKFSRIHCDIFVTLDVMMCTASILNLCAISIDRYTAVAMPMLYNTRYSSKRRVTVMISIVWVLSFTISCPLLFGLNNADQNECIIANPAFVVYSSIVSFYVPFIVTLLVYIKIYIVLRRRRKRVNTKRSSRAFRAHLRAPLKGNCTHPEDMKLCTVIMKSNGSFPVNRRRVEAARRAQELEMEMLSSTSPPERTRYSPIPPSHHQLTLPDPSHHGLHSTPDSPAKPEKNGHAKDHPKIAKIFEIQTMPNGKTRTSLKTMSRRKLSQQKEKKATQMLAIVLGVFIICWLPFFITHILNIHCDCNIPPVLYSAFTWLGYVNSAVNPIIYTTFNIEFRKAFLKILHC
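PathHunter D2 cells, attached overnight at 37 deg C, received compound in DMSO plus dopamine at EC20 (50 nM final) for 90 min at 37 deg C. Beta-arrestin recruitment was read as luminescence after 1 h with detection reagent at ambient temperature.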
* marks the source's active call; other numbers are inactive results; ? = inconclusive; · = no result given; & = joins results of further samples; [ ] = another dose, or the depositor's remark.

(1) O=C(NCc1cccnc1)C1CCN(S(=O)(=O)c2cccnc2)CC1
(2) Cc1ccc(N2C(=O)[C@@H]3[C@H](C2=O)[C@H]2C=CC=NN2[C@@H]3C(=O)Nc2ccccc2)cc1
(3) Cn1ccsc1=NC(=O)c1ccc(S(C)(=O)=O)cc1
(4) CC(=O)Nc1ccc(NC(=O)C(C)OC(=O)CCCc2c[nH]c3ccccc23)cc1 (stereo not given)
(5) CN(C)CCNc1nc(-c2ccco2)c2c(c1C#N)CC(C)(C)OC2
Screen / compound no.	1	2	3	4	5
Sfp PPTase inh	-8.2%	-14.2%	12.5%	·	-1.0%
TRPV1 potentiator	-1.1	4.4	12.6	?	2.3
Menin MLL FP FL	-1.2	1.6	4.9	·	2.0
gsp agonist	29.8%	-8.3%[15.4 µM]	?	9.1%[15.4 µM]	1.8%
gsp antag	0.2%[15.4 µM]	-8.2%	7.0%	3.1%	2.7%
D2 PAM	-9.6	-5.3	-0.8	0.2	-11.3
ClpP mod	-6.9%	0.7%	·	·	?

(6) COc1ccc2c(c1)cc1c(=O)n(CC(=O)NC(C)CCc3ccccc3)nc(C)n12 (stereo not given)
(7) O=[N+]([O-])c1cccc(/C=N/n2cnnc2)c1O
(8) COCCSc1nc(N)c(NC(=O)c2ccco2)c(=O)[nH]1
(9) CCOC(=O)c1cc(-c2ccccc2)nc2c(O)cccc12
(10) O=S(=O)(/N=C(/Nc1cccc2ccccc12)c1ccccc1)c1ccc(F)cc1
Screen / compound no.	6	7	8	9	10
Sfp PPTase inh	9.8%	-17.6%	8.6%	·	13.3%
TRPV1 potentiator	8.4	-4.8	4.0	·	-0.9
Menin MLL FP FL	0.7	2.9	-1.3	·	·
gsp agonist	11.9%	3.1%[15.4 µM]	15.4%	-2.8%	3.3%
gsp antag	-33.1%	-2.4%	7.8%	-15.1%	-3.3%
D2 PAM	-5.3	-22.6	-2.5	-14.4	-14.0
ClpP mod	-16.6%&-8.2%	-0.7%	1.1%	-2.0%	-2.6%

(11) COc1ccc(C(C(=O)NC2CCCC2)N2CCc3ccccc32)cc1 (stereo not given)
(12) CCCCNS(=O)(=O)c1ccc2nc(SCC(N)=O)[nH]c2c1
(13) CCOCCCNC(=O)C1(O)c2cc(Br)ccc2NC(=O)N1c1cccc(OC)c1 (stereo not given)
(14) CSc1ccccc1C(=O)Nc1cc2c(cc1C(=O)O)OCCCO2
(15) Cc1c(NCc2cc(Cl)cc(Cl)c2O)c(=O)n(-c2ccccc2)n1C
Screen / compound no.	11	12	13	14	15
Sfp PPTase inh	8.5%	25.0%	8.5%	4.4%	-2.4%
TRPV1 potentiator	27.2	-4.9	-6.1	8.0	3.4
Menin MLL FP FL	-6.4	3.6	-3.0	0.6	1.8
gsp agonist	16.8%	-6.7%	3.9%	-1.6%[15.4 µM]	1.7%
gsp antag	11.8%	11.8%	3.6%	-10.3%	?
D2 PAM	-8.7	-13.5	8.6	-2.4	-8.8
ClpP mod	1.5%	-2.0%	·	0.2%	-0.6%

(16) O=[N+]([O-])c1ccc(OC/C=C2\Oc3ccc([N+](=O)[O-])cc3C2N2CCOCC2)cc1 (stereo not given)
(17) COc1ccc(C(=O)Cn2c(=O)oc3ccc(C)cc32)cc1
(18) CS(=O)(=O)c1ccc(N2CCN(c3ccccn3)CC2)c([N+](=O)[O-])c1
(19) O=C(CSc1cn(Cc2cccc(F)c2)c2ccccc12)NCc1ccc(F)cc1
(20) COc1cc(/C=N/NC(=O)c2ccc(CSc3nc4ccccc4[nH]3)cc2)ccc1O
Screen / compound no.	16	17	18	19	20
Sfp PPTase inh	2.2%	20.0%	17.0%	10.2%	20.4%
TRPV1 potentiator	3.4	?	2.0	8.5	6.8
Menin MLL FP FL	-1.7	-2.5	-0.1	6.6	-1.6
gsp agonist	-22.6%	-20.4%	?	45.2%	-0.2%[15.4 µM]
gsp antag	-13.3%	-4.1%	-4.2%	4.9%	-19.4%
D2 PAM	-11.8	18.8	-4.6	-3.0	-1.7
ClpP mod	0.9%	1.0%	·	2.0%	·

11 entries from above, with two lines to a compound:
Value order – Sfp PPTase inh, TRPV1 potentiator, Menin MLL FP FL, gsp agonist, gsp antag, D2 PAM, ClpP mod
#10 O=S(=O)(/N=C(/Nc1cccc2ccccc12)c1ccccc1)c1ccc(F)cc1
 : 13.3%, -0.9, ·, 3.3%, -3.3%, -14.0, -2.6%
#11 COc1ccc(C(C(=O)NC2CCCC2)N2CCc3ccccc32)cc1 (stereo not given)
 : 8.5%, 27.2, -6.4, 16.8%, 11.8%, -8.7, 1.5%
#12 CCCCNS(=O)(=O)c1ccc2nc(SCC(N)=O)[nH]c2c1
 : 25.0%, -4.9, 3.6, -6.7%, 11.8%, -13.5, -2.0%
#13 CCOCCCNC(=O)C1(O)c2cc(Br)ccc2NC(=O)N1c1cccc(OC)c1 (stereo not given)
 : 8.5%, -6.1, -3.0, 3.9%, 3.6%, 8.6, ·
#14 CSc1ccccc1C(=O)Nc1cc2c(cc1C(=O)O)OCCCO2
 : 4.4%, 8.0, 0.6, -1.6%[15.4 µM], -10.3%, -2.4, 0.2%
#15 Cc1c(NCc2cc(Cl)cc(Cl)c2O)c(=O)n(-c2ccccc2)n1C
 : -2.4%, 3.4, 1.8, 1.7%, ?, -8.8, -0.6%
#16 O=[N+]([O-])c1ccc(OC/C=C2\Oc3ccc([N+](=O)[O-])cc3C2N2CCOCC2)cc1 (stereo not given)
 : 2.2%, 3.4, -1.7, -22.6%, -13.3%, -11.8, 0.9%
#17 COc1ccc(C(=O)Cn2c(=O)oc3ccc(C)cc32)cc1
 : 20.0%, ?, -2.5, -20.4%, -4.1%, 18.8, 1.0%
#18 CS(=O)(=O)c1ccc(N2CCN(c3ccccn3)CC2)c([N+](=O)[O-])c1
 : 17.0%, 2.0, -0.1, ?, -4.2%, -4.6, ·
#19 O=C(CSc1cn(Cc2cccc(F)c2)c2ccccc12)NCc1ccc(F)cc1
 : 10.2%, 8.5, 6.6, 45.2%, 4.9%, -3.0, 2.0%
#20 COc1cc(/C=N/NC(=O)c2ccc(CSc3nc4ccccc4[nH]3)cc2)ccc1O
 : 20.4%, 6.8, -1.6, -0.2%[15.4 µM], -19.4%, -1.7, ·

Next part:
(21) C/C(=N\NC(=O)c1ccc(=O)[nH]n1)c1cccnc1
(22) COc1ccc(S(=O)(=O)N2CCC3(CC2)OCCN3S(=O)(=O)c2cccs2)cc1OC
(23) Cc1ccc2c(Cl)c(C(=O)NCCCN3CCOCC3)sc2c1
(24) COc1ccccc1Oc1ccc(S(=O)(=O)N2CCCC2)cc1
(25) COC(=O)c1sccc1NC(=O)Nc1ccccc1Cl
Screen / compound no.	21	22	23	24	25
Sfp PPTase inh	-36.9%	·	·	-7.0%	1.2%
TRPV1 potentiator	-16.6	-4.3	·	-19.5	-9.6
Menin MLL FP FL	1.1	·	·	0.0	·
gsp agonist	11.4%	4.3%[15.4 µM]	-42.3%[inhibitor]	-14.8%	-1.9%
gsp antag	12.7%	4.0%	·	-10.7%	-6.2%
D2 PAM	-5.8	15.7	-8.7	-9.4	5.2
ClpP mod	-3.4%	0.8%	-4.1%	1.2%	8.1%

(26) C=CCNC(=O)c1onc(CSc2cc(C)ccc2C)c1C(=O)O
(27) CC(C)CC(=O)NC(NC(=S)Nc1cccc2cccnc12)C(Cl)(Cl)Cl (stereo not given)
(28) CC(=O)Nc1ccc(NC(=O)COC(=O)c2ccco2)cc1
(29) CCOc1ccccc1N(C(=O)CNC(=O)c1ccco1)C(C(=O)NC1CCCC1)c1cccnc1 (stereo not given)
(30) COc1ccc(CNC(=O)CCn2nc(C)c3c(C)n(-c4ccccc4)nc3c2=O)c(OC)c1
Screen / compound no.	26	27	28	29	30
Sfp PPTase inh	-1.0%	-9.8%	17.6%	7.1%	1.5%
TRPV1 potentiator	6.7	2.9	6.0	-2.6	7.6
Menin MLL FP FL	-0.3	-1.6	-2.8	1.7	1.9
gsp agonist	·	-15.4%	13.7%	-3.4%	40.4%
gsp antag	-16.4%	-30.6%	9.2%	15.3%	-0.1%
D2 PAM	0.6	-16.0	-8.4	-7.8	-5.7
ClpP mod	2.0%	17.5%	0.8%	-2.6%	-2.3%&-0.3%

(31) CN(C)c1ccc(C(=O)NNC(=O)Nc2ccccc2)cc1
(32) O=C(COc1ccccc1)N(Cc1cccc(F)c1)C1CCS(=O)(=O)C1 (stereo not given)
(33) CCc1ccc(CCC(=O)Nc2ccc(C(C)=O)cc2)o1
(34) CC(=O)Oc1cc(O)c2c(c1)OC(c1ccc(OC(C)=O)c(OC(C)=O)c1)C(OC(C)=O)C2=O (stereo not given)
Screen / compound no.	31	32	33	34
Sfp PPTase inh	5.9%	14.8%	-14.8%	5.9%
TRPV1 potentiator	12.2	4.3	1.8	-7.7
Menin MLL FP FL	2.1	·	0.4	0.1
gsp agonist	-21.1%[15.4 µM]	34.8%	-9.8%	0.2%
gsp antag	-2.5%	-4.7%	-10.1%	-2.4%
D2 PAM	4.1	-9.8	-14.3	-8.7
ClpP mod	·	-3.1%	-1.9%	-13.0%

Compound activity deposited in PubChem BioAssay by National Center for Advancing Translational Sciences (NCATS).
